D2 PAM: Beta-Arrestin HTS for Positive Allosteric Modulators of the Human D2 Dopamine Receptor: Potentiators; potentiation, % (test concentration not listed); DiscoveRx D2 beta-arrestin cells, luminescence, 90 min; 100% = 57 uM dopamine signal; D(2) dopamine receptor (Homo sapiens), P14416; 360,000 tested, 0.23% active; AID 624464, 2012; active = potentiation of 50% or more; inconclusive = 30% to 50%; inactive = 30% or less;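 note: compound concentration not given in the record; tested on top of an EC20 dose of dopamine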
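PathHunter beta-arrestin assay in DiscoveRx D2 cells. Compounds were added with an EC20 of dopamine (50 nM final) for 90 min at 37 deg C. Luminescence was read 1 h after detection reagent, with 57 uM dopamine as the EC100 control.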
CtBP-E1A inh: qHTS Assay for Inhibitors of the CtBP/E1A Interaction | 340,000 tested, 0.49% active | CtBP / adenovirus E1A interaction (AlphaScreen) | AlphaScreen GST-E1A/His-CtBP binding, 1536-well; hits give low values; control for the full effect not named in the record | activity change, % (concentration not given with the values); in the data active means activity change below about -65%; inconclusive means about -30% to -65%; inactive means above about -30%; note: % is set by controls: 0 for no effect and ±100 for the full control effect
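Protein mix (5X: 125 nM each GST-E1A, His-CtBP) was incubated with pinned compound 2 h at 37 deg C in dark, in 50 mM Tris pH 8.0 buffer with 300 mM NaCl. Glutathione donor and nickel acceptor beads followed; AlphaScreen signal read after 1 h.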
TRPML1 ag: qHTS for Agonists of the Human Mucolipin Transient Receptor Potential 1 (TRPML1). Mucolipin-1 (Homo sapiens), Q9GZU1. TRPML1-expressing cells, Ca2+ dye fluorescence, FDSS; host cell line not named in the record; reference of the full effect not given here. 410,000 tested, 0.12% active. activation, % (test concentration not listed); in the data active = activation above about 50%; inconclusive = about 30% to 50%; inactive = below about 30%; note: 0% is about no effect; the text of the record puts the active cut at 80%
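Tetracycline-induced TRPML1-DL cells are seeded and incubated overnight before loading with a no-wash Ca2+ dye and quencher. Agonist activity is taken from the 110 s fluorescence read following compound pin-transfer on an FDSS, before EC80 54-4 challenge.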
Six1-Eya2 blk: qHTS Assay for Inhibitors of the Six1/Eya2 Interaction. activity change, % (concentration not given with the values). Homeobox protein SIX1 (Homo sapiens) + Protein phosphatase EYA2 (Homo sapiens), …. 360,000 tested, 0.56% active. AlphaScreen GST-Six1/His-Eya2 binding, biochemical; hits give low values; control for the full effect not named in the record; in the data active = activity change below about -65%; inconclusive = about -30% to -65%; inactive = above about -30%; note: % is set by controls: 0 for no effect and ±100 for the full control effect
Target sequence (O00167 whole entry, looked up): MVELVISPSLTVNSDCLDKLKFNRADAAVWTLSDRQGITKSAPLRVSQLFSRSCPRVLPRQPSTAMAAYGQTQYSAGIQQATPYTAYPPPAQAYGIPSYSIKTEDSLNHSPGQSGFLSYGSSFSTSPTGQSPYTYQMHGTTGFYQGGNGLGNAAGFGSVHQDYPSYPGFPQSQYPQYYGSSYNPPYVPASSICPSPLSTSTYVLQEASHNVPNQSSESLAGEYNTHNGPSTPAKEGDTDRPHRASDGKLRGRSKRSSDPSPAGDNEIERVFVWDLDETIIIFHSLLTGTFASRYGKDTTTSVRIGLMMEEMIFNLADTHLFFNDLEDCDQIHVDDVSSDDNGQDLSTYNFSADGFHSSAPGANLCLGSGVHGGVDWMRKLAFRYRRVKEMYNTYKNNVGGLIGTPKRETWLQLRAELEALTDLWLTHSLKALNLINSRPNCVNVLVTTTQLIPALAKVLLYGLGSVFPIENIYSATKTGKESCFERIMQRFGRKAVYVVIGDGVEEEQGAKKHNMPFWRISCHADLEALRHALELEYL
Target sequence (Q15475 whole entry, looked up): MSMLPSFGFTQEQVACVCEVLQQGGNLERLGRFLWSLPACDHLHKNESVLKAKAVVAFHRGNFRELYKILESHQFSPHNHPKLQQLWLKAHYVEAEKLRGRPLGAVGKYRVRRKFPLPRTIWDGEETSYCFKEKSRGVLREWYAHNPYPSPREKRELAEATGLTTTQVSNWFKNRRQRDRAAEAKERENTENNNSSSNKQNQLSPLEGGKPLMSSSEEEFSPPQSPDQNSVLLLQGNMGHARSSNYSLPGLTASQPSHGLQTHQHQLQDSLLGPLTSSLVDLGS
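Six1/Eya2 binding was read as AlphaScreen signal after compounds were pinned into GST-Six1 plus His-tagged Eya2 (5X stock 250/500 nM) in pH 8.0 Tris/NaCl/TCEP buffer, beads added, then incubated 1 h, 37 C, dark.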
D2 agonist: Beta-Arrestin HTS for Positive Allosteric Modulators of the Human D2 Dopamine Receptor: Agonists. D(2) dopamine receptor (Homo sapiens), P14416. DiscoveRx PathHunter D2 beta-arrestin, luminescence, 90 min; 100% = 57 uM dopamine signal. activation, % (concentration not given with the values). 360,000 tested, 0.084% active. AID 624465, 2012; in the data active = activation above about 40%; inconclusive = about 15% to 40%; inactive = below about 15%; note: compound concentration not given in the record; the text of the record calls up to 30% inactive
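Agonist mode: compounds alone added to overnight-plated D2 PathHunter cells for 90 min at 37 C, with 57 uM final dopamine (EC100) defining full response. Beta-arrestin recruitment detected by chemiluminescent reagent, read after 1 h at ambient temperature.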
PINK1 expr mod: A Quantitative High throughput Screen to Identify Chemical Modulators of PINK1 Expression. PINK1 immunofluorescence, high-content cytometry, 24 h. Potency, µM (doses to about 76.6 µM), inactives show at the highest dose activation (PINK1 increase), actives largely listed as activators. 410,000 tested, 0.2% active. AID 624263, 2012; active = well fitted activation curve with a large enough effect; inconclusive = small, poorly fitted or top-dose-only effect; inactive = flat fitted curve, though single readings scatter; cell line not stated here;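 note: potency is the fitted concentration of half-maximal effect; % of control where 0% means no effect; nearly all actives have a fitted effect of over 65% in size; a mitochondrial uncoupler was the plate control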
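Decision-based qHTS: stable cells, 24 h exposure to five compound concentrations, CCCP as control. Fixed cells stained for PINK1 plus nuclear, mitochondrial and cell markers, cytometer read.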
Starred values were filed as active, the others as inactive; ? = inconclusive; · = not tested or not shown; [ ] = another dose, or the depositor's remark.

SMILES | D2 PAM | CtBP-E1A inh | TRPML1 ag | Six1-Eya2 blk | D2 agonist | PINK1 expr mod
Cc1cccc(C)c1NC(=O)CN1CCN(C(=O)c2cc(C3CC3)nn2-c2ccccc2)CC1 | -17 | -21 | 0.7 | 2 | -0.8 | -0.9%
CN(C)CCCNCCCNC(=O)c1ccncc1 | -3 | 10 | -0.7 | 3 | -2.2 | -2.9%
CCCn1c(C2CCCN2c2nc(-c3ccc(C)cc3)cs2)nc2ccccc21 (stereo not drawn) | -18 | -23 | 1.1 | -7 | -0.5 | 6.3%
COCCn1c(C)cc(C(=O)CN2CCCCC2)c1C | -3 | -2 | 0.4 | -1 | 1.4 | 1.6%
C[C@H]1CN([C@@H](C)CO)C(=O)CCCn2cc(nn2)CO[C@@H]1CN(C)C(=O)Nc1ccccc1C(F)(F)F | 4 | 4 | -0.3 | 3 | -8.6 | -0.4%
CCCC(=O)Nc1ccc2c(c1)nc(CCN1CCC(C)CC1)n2C | -15 | 5 | 0.5 | -1 | -2.6 | 0.6%
CCOC(=O)c1ccc(-c2c(-c3ccccc3OC)sc3ccc(OC)cc23)cc1F | -18 | -25 | 0.8 | 6 | -9.9 | 1.6%
COc1cc(NC(=O)COc2cc(C)cc3oc(=O)cc(C)c23)cc(OC)c1OC | -15 | 0 | 0.3 | 4 | 1.1 | -1.1%
Cc1nn(-c2ccccc2)c(C)c1/C=N/NC(=O)c1cc(C2CC2)[nH]n1 | -21 | -2 | 0.2 | -6 | 1.5 | 1.2%
COc1cccc2cc(/C(=N/O)c3ccccc3)oc12 | -10 | · | 2.2 | -1 | 2.4 | 0.7%
COc1ccc(C(=O)NCCc2ccc(C(F)(F)F)cc2)cc1S(=O)(=O)N1CCOCC1 | -3 | -3 | 0.5 | 7 | 3.2 | -0.4%
CCC(CC)C(=O)Nc1cc(C(=O)OC)cc(C(=O)OC)c1 | -2 | -2 | 0.2 | 4 | -1.3 | 1.2%
O=C(CSc1nnc(-c2ccco2)n1-c1ccccc1)NCC1CCCO1 (stereo not drawn) | -30 | 5 | 0.2 | -1 | -2.3 | -1.7%
O=C(NCC1CCCCC1)c1[nH]c(C(F)(F)F)nc1-c1ccccc1 | -4 | -18 | -0.3 | -2 | -5.0 | 0.4%
COc1ccc(/C=N/NC(=O)Nc2cccc3nsnc23)c(OC)c1 | -6 | 7 | -0.6 | 3 | -2.1 | 13%
CCCOc1ccc(CSc2nc3ccccc3[nH]2)cc1 | 2 | 17 | 1.9 | 5 | 8.2 | -3.0%[38.3 µM]
CCOC(=O)C1=C(CCc2ccccc2)NC(=O)NC1c1ccc2ccccc2c1 (stereo not drawn) | -5 | -7 | 3.6 | 0 | -2.4 | -0.4%
CC(C)c1ccc(S(=O)(=O)N2CCC3(CC2)OCCO3)cc1 | -4 | 8 | 20 | -16 | -2.1 | 0.4%
COCCN1C=C(C(=O)OC)C(c2ccc(OC)c(OC)c2)C(C(=O)OC)=C1 | -12 | 25 | 1.9 | 6 | 0.3 | -2.6%[38.3 µM]
COc1ccc(NC(=O)c2ccc(OC)c(S(=O)(=O)N3CCCCC3C)c2)cn1 (stereo not drawn) | 3 | ? | -0.1 | ? | -1.2 | 5.0%
COC(=O)c1cccc(CN2C(=O)C(C)Sc3ccc(C)cc32)c1 (stereo not drawn) | -13 | 7 | 7.1 | 12 | -6.3 | 1.2%
COc1cc(C(=O)c2cocc2C(=O)c2ccc3c(c2)OCO3)cc(OC)c1OC | -4 | 2 | -1.1 | -3 | -5.0 | 8.6%
CCOc1ccc(NC(=O)CN(C)C(=O)c2ccccc2SCc2c(C)noc2C)cc1OCC | -25 | 0 | -0.4 | -9 | -6.0 | 0.3%
O=c1cc(CO)occ1OCc1ccccc1 | -11 | -3 | 0.4 | 0 | -1.1 | 1.5%
COc1ccc(-c2csc(NC(=O)CSc3ncn[nH]3)n2)cc1OC | -4 | -5 | 0.3 | -11 | -6.6 | 1.1%
CCCNS(=O)(=O)c1ccc(CCC(=O)NCC2CCCO2)cc1 (stereo not drawn) | 2 | 5 | 0.9 | 14 | 2.3 | 1.5%
CCc1nc2ccccc2n(CCOCCOCCn2c(=O)c(CC)nc3ccccc32)c1=O | 7 | 14 | 0.7 | -1 | -2.6 | 2.3%
COC(=O)c1c(C(=O)OC)c(-c2ccc(F)cc2)n2c1CS(=O)C2 (stereo not drawn) | -17 | -7 | 0.4 | 5 | 0.5 | 1.6%
CCCc1cc(C(=O)NNC(=S)NC(C)c2ccccc2)cs1 (stereo not drawn) | -21 | 1 | 1.1 | -9 | -4.5 | 8.7%[38.3 µM]
CCC(NC(=O)NNC(=O)c1ccncc1)(C(F)(F)F)C(F)(F)F | -6 | 11 | 1.4 | 33 | -4.4 | -0.2%

One compound at a time, from the list above. Values in the order: D2 PAM | CtBP-E1A inh | TRPML1 ag | Six1-Eya2 blk | D2 agonist | PINK1 expr mod
CCOc1ccc(NC(=O)CN(C)C(=O)c2ccccc2SCc2c(C)noc2C)cc1OCC is entered as -25 | 0 | -0.4 | -9 | -6.0 | 0.3%
CCC(NC(=O)NNC(=O)c1ccncc1)(C(F)(F)F)C(F)(F)F is entered as -6 | 11 | 1.4 | 33 | -4.4 | -0.2%
COc1ccc(NC(=O)c2ccc(OC)c(S(=O)(=O)N3CCCCC3C)c2)cn1 (stereo not drawn) is entered as 3 | ? | -0.1 | ? | -1.2 | 5.0%
CCOC(=O)C1=C(CCc2ccccc2)NC(=O)NC1c1ccc2ccccc2c1 (stereo not drawn) is entered as -5 | -7 | 3.6 | 0 | -2.4 | -0.4%
CCCOc1ccc(CSc2nc3ccccc3[nH]2)cc1 is entered as 2 | 17 | 1.9 | 5 | 8.2 | -3.0%[38.3 µM]

(cont.)
SMILES | D2 PAM | CtBP-E1A inh | TRPML1 ag | Six1-Eya2 blk | D2 agonist | PINK1 expr mod
O=C(OC(C(=O)O)C(OC(=O)c1ccccc1)C(=O)NCc1ccccc1)c1ccccc1 (stereo not drawn) | -1 | -20 | -0.2 | -14 | -1.3 | -3.2%
O=S(=O)(c1ccc(Cl)c(S(=O)(=O)N2CCCC2)c1)N1CCCC1 | 10 | 19 | -1.0 | 22 | -4.3 | 1.9%
FC(F)(F)c1cnc(Sc2nnc(-c3cccs3)n2CC2CCCO2)c(Cl)c1 (stereo not drawn) | 0 | 0 | 2.8 | 0 | -0.8 | 1.3%[38.3 µM]
NNc1nc2c(Cl)cccc2s1 | -37 | -5 | 0.0 | -26 | -11 | 1.1%
O=c1[nH]c(C2CCN(S(=O)(=O)c3ccc(S(=O)(=O)NC4CC4)cc3)CC2)nc2c1nnn2Cc1ccc(F)cc1 | -1 | -5 | -0.3 | -10 | 0.9 | 15%
CCc1c(C)c2cc(Cl)c(O)c(CN3CCCC3)c2oc1=O | 3 | 11 | -0.3 | -7 | -1.3 | 2.0%
Cc1cc(-c2ccccc2)n(-c2cc(N/N=C/c3ccccc3O)ncn2)n1 | -13 | 20 | 0.3 | -6 | -15 | 4.8%
COC(=O)NCc1cccc(CNC(=O)OC)c1 | 2 | -5 | -0.6 | 10 | -0.5 | 1.1%
Cc1noc(C)c1-c1nnc(-c2ccc(C(F)(F)F)cc2)o1 | 1 | · | 1.5 | 2 | -3.7 | -0.4%
O=C(NCc1ccco1)C1CC(c2cccc([N+](=O)[O-])c2)=NO1 (stereo not drawn) | -10 | -22 | -0.3 | 4 | -0.9 | 0.1%
COc1ccc(OC)c2sc(N3CCN(c4ccccc4)CC3)nc12 | -16 | -19 | 1.1 | -30 | -2.3 | 8.6%
O=C(O)CSc1nnc(COc2ccc(Br)cc2)n1-c1ccccc1 | -4 | 0 | 0.4 | 8 | -1.3 | -0.7%
CC(C)Cc1nnc(NC(=O)c2ccc([N+](=O)[O-])cc2)s1 | -5 | 0 | -0.1 | 22 | -8.9 | -0.2%
CCCNC(=O)c1ccc(N2CCC3(CC2)CC(c2ccccc2)=NO3)c(NC(=O)c2cccc(C)c2)c1 | -9 | -28 | 1.6 | -17 | -0.9 | 1.8%
COc1ccc(-c2cn3c(C)c(C(=O)N4CCN(c5ccccc5F)CC4)sc3n2)cc1 | 0 | -5 | 0.5 | -23 | 3.3 | 0.2%
CCOc1ccccc1C1NC(=O)CCC1[N+](=O)[O-] (stereo not drawn) | -7 | 4 | -0.2 | 8 | 0.5 | 0.5%
CCOc1ccc(NC(=O)CN(C)C(=O)c2cc(-c3ccncc3)nc3ccccc23)cc1OCC | 1 | 1 | 0.2 | -7 | -3.6 | 1.2%
CCN1CCN(c2cc(C)c3cc(NC(=S)NCCCN4CCc5ccccc5C4)ccc3n2)CC1 | -14 | -23 | -0.3 | -6 | -2.9 | 0.6%
O=S(c1ccccc1)c1ccccc1 | -7 | -14 | 0.1 | 4 | -0.4 | -1.1%
O=C(NC1CCCC1)c1cc(S(=O)(=O)N2CCOCC2)c(Cl)cc1Cl | -12 | 0 | 0.7 | -10 | -3.7 | 1.0%
CCn1ccc(C(=O)Nc2ccccc2SC)n1 | -8 | 0 | 0.2 | -11 | -1.8 | -1.8%
COc1ccc(NC(=S)NCCN2CCC(C)CC2)cc1 | 1 | 2 | 0.9 | 19 | -18 | 0.6%
Cc1cccc(Cc2c(C)[nH]c(=O)c(C#N)c2C)c1 | 0 | 7 | -0.4 | -1 | -1.6 | 1.6%
O=C(C[n+]1ccccc1)N1CCCc2ccccc21 | 3 | · | 3.4 | 0 | 0.3 | -0.5%
COc1ccc(NC(C)=O)cc1S(=O)(=O)N(C)Cc1c(C)nn(-c2ccccc2)c1C | -6 | -4 | -0.1 | 1 | 5.3 | -1.3%
O=C(NCC1CC1)c1ccc2sc([C@@H]3O[C@H](CO)[C@H](O)[C@H](O)[C@H]3O)nc2c1 | -10 | -2 | -0.2 | -2 | -7.0 | 2.3%
CC(C)CN(CCNC(=O)CN1C(=O)COc2ccc(S(=O)(=O)N3CCC(C)CC3)cc21)CC(C)C | -7 | 13 | -0.8 | 6 | -9.2 | 1.4%
O=C(O)c1ccc2c(c1)OCCCO2 | -5 | · | -0.3 | 8 | -3.8 | 0.4%
Cc1ccc(OC(=O)C23CC4CC(CC(C4)C2)C3)c(C)n1 | -17 | -15 | 2.6 | 6 | 3.1 | 8.5%
CCCCCCCCCOC1OC(CO)C(O)C(O)C1NC(C)=O (stereo not drawn) | 1 | 0 | 1.4 | 4 | -5.3 | 2.4%
Cc1ccc(S(=O)(=O)N2[C@@H](c3ccc(Br)cc3)C(C(=O)O)=CC[C@H]2c2ccc(Cl)c(Cl)c2)cc1 | · | 3 | -0.2 | 0 | -1.1 | 0.0%
O=C(Nc1cccc(OCC(=O)N2CCOCC2)c1)c1cccc([N+](=O)[O-])c1 | 2 | · | 0.4 | 5 | 1.0 | -1.0%
